LANA-H2A inh: blockers of LANA interaction with H2A/H2B – biochemical, FP readout, HTS, primary screen; Protein LANA1 (Human herpesvirus 8 type P (isolate GK18)), Q9QR71; cell-free LANA-H2A/H2B peptide, fluorescence polarization; inhibition, % (test concentration not listed); hit rate 0.6% among 320,000; AID 2629, 2010; in the data active = inhibition mostly above about 10%, no sharp cut-off; inactive = mostly below about 6.7%;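 also: stock transfer was 7.5 nL into about 10 µL; 0% = median of vehicle wells and 100% = median of positive control wells; one replicate is shown; the record names a cut of 25% in any replicate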
Beta apoptosis: inhibitors of cytokine-induced beta cell apoptosis, primary screen, luminescence; protection from apoptosis, % (test concentration not listed); INS-1E cytokine-induced death, ATP luminescence, 48 h; percent of positive-control rescue, neutral wells zero; hit rate 0.8% among 300,000; AID 435005, 2010;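 active = all replicates at 75% or more, or half of them and the mean; inconclusive = half reach 75% but not the mean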;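 also: 0% = cytokine-treated negative control wells and 100% = positive control rescue; higher means more ATP so stronger rescue from cytokine killing; wells of about 40 µL received 100 nL stock; the first replicate is given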
B2AR ag: beta2AR agonists driving receptor internalization, primary screen, cell-based, FAP fluorogen, flow cytometry. Beta-2 adrenergic receptor (Homo sapiens), P07550. response, % (no concentration beside the values). hit rate 0.43% among 340,000. Am2.2-beta2AR cells; reference of the scale not given here;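 active = response above a set limit, near 3 SD of response in nonfluorescent compounds, cut at about 42% in these data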;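 also: stock transfer was 100 nL into about 11 µL; a reference agonist was the positive control; negative values mostly stem from fluorescent compounds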
Target sequence (P07550 whole entry, looked up): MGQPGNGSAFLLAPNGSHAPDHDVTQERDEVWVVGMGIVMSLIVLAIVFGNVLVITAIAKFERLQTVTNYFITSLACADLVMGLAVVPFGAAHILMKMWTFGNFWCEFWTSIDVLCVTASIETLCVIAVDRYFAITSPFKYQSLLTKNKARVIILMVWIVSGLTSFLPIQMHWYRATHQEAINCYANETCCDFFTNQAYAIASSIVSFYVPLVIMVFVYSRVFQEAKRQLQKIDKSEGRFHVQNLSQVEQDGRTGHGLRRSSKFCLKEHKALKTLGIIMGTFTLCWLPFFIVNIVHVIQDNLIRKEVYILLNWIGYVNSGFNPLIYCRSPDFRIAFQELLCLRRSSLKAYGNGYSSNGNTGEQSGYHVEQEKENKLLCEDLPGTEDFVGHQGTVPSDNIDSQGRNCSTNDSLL
Calb FLC: C. albicans growth inhibition with fluconazole, primary screen, CaCi-2 strain, Alamar Blue fluorescence. C. albicans CaCi-2 (fluconazole-resistant clinical isolate) + fluconazole, 48 h. growth inhibition, % (test concentration not listed). hit rate 0.57% among 300,000;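 active = most replicates above 75%; inconclusive = exactly half above 75%; inactive = most below 75%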;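 also: all wells also contain fluconazole at 8 µg/ml as a sub-toxic cotreatment; 0% = median of DMSO wells and 100% = median of geldanamycin control wells; wells of about 8 µL received 7.5 nL stock; the first replicate is given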
UCH37 DUB inh: inhibitors of human UCH37 deubiquitinase, primary screen, biochemical, Ub-AMC cleavage, fluorescence; inhibition, % (concentration not given with the values); purified proteasome/UCH37; hit rate 0.33% among 330,000;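 active = mean of two replicates above 20%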;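 also: 0% = compound-free wells with enzyme and 100% = wells lacking proteasome; stock transfer was 100 nL into about 20 µL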
Target sequence (Q9Y5K5 whole entry, looked up): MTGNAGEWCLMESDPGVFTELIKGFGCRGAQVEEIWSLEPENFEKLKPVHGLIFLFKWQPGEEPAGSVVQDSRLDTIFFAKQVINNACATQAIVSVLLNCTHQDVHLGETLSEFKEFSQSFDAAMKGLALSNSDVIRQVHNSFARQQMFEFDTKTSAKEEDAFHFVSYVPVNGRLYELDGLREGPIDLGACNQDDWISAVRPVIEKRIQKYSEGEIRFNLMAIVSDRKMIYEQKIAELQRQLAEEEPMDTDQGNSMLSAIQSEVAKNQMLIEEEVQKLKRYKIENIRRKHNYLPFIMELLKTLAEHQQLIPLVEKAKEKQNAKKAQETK
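Reagent: Ub-AMC substrate; assay system: Proteasome-associated human UCH37 deubiquitinase; controls: no-proteasome and no-compound wells; read-out: % inhibition of Ub-AMC cleavage fluorescence; timing: 30 min preincubation with enzyme, 25 min cleavage at room temperature; signal: AMC fluorescence from Ub-AMC cleavage, excitation 355 nm, emission 460 nm; buffer or medium: Tris-HCl pH 7.4 plus ovalbumin, ATP-MgCl2, DTT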
A1 inh: caspase 3/7 activation in MEF A1-2A-BIM cells, primary screen, A1 inhibitor project, cell-based, luminescence, HTS; Caspase-Glo 3/7 luminescence, 3 h; percent of clofoctol response, vehicle zero; caspase activation, % (no concentration beside the values); AID 2462, 2010; hit rate 0.066% among 330,000;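 active = over half of replicate activation scores above 10%, or exactly half above 10 with the replicate mean above 10; inconclusive = replicate mean below 10 yet half the replicates above 10; inactive = over half of replicates below 10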;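 also: wells of about 30 µL received 50 nL stock; many hits fall short of the cut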
T cruzi repl: inhibitors of intracellular T. cruzi growth, primary screen, luminescence, NIH3T3 host cells | T. cruzi beta-gal in NIH3T3, 90 h | inhibition, % (no concentration beside the values) | hit rate 1.4% among 300,000 | AID 1885, 2009;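 active = mean inhibition across valid replicates above about 55%, limit read from the data; inconclusive = mean below that limit but half or more replicates reach it; inactive = mean below it, under half of replicates reach it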;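 also: signal also drops with host cell toxicity which is not excluded here; 0% = plate median of DMSO wells and 100% = zero luminescence signal; higher percent means less beta-gal luminescence so fewer parasites; stock transfer was 50 nL into about 50 µL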
RanGTP-Impb inh: inhibitors of RanGTP-importin-beta interaction, primary screen, biochemical, FRET, CFP-Ran, YFP-importin-beta, homogeneous; cell-free CFP-Ran/YFP-importin-beta FRET ratio; inhibition, % (concentration not given with the values); Ran GTPase (GTP-bound) - importin-beta complex; hit rate 1.1% among 300,000;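 active = most replicates above 15%; inconclusive = exactly half above 15%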;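 also: 0% = DMSO wells and 100% = Ran loaded with GDP instead of GTP; wells of about 40 µL received 100 nL stock; the first replicate is given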
Active calls of the source: *; i = inactive; ? = inconclusive; · = not tested or not shown.

SMILES | LANA-H2A inh | Beta apoptosis | B2AR ag | Calb FLC | UCH37 DUB inh | A1 inh | T cruzi repl | RanGTP-Impb inh
Cc1ccc(C(=O)N(NC2=NS(=O)(=O)c3ccccc32)S(=O)(=O)c2ccc(C)cc2)cc1 | -0.9 | -5 | -4 | 2 | 6.0 | 0.3 | -22 | -2.6
O=C(NCc1cccnc1)c1noc2c1CCCCC2 | -0.4 | -2 | -2 | -7 | 1.3 | -0.7 | 0 | -4.4
O=P(CCCCCCCCCP(=O)(c1ccccc1)c1ccccc1)(c1ccccc1)c1ccccc1 | 3.9 | · | 18 | 4 | 3.1 | 1.1 | 61* | -1.7
C=CCn1c(N)cc(=O)nc1SCC(=O)Nc1ccccc1 | -0.4 | -18 | 1 | 13 | 1.5 | 0.5 | -4 | 2.8
COCC1CCN(Cc2nc(Cc3ccccc3Cl)no2)CC1 | 0.6 | -2 | 16 | -15 | 1.9 | 0.0 | -3 | ?
OCCNc1nc(Nc2ccccc2O)nc(N2CCCC2)n1 | -5.2 | -6 | -8 | 5 | 0.9 | 0.9 | -12 | 0.4
Cc1cc(C)nc(NS(=O)(=O)c2ccc(NC(=O)c3ccc(O)cc3O)cc2)n1 | 1.5 | -7 | -1 | 10 | -35 | 0.3 | -8 | -4.3
CS(=O)(=O)N(CCc1ccccc1)CC(=O)N1CCN(Cc2ccc3c(c2)OCO3)CC1 | -1.3 | -1 | -3 | -24 | 0.9 | 0.2 | -10 | -1.3
CCOC(=O)c1ccc2c(c1)nc(SCC(=O)c1cc3ccccc3o1)n2CC | 0.8 | 8 | -1 | -2 | 4.5 | -0.6 | -3 | -15
CC(=O)c1ccc2cccc3c2c1N=CN3C | -0.7 | -2 | -494 | -14 | 0.9 | -0.2 | 4 | 1.2
COc1ccc(NC(=O)Nc2ccc(C)cc2Br)c(OC)c1 | 3.1 | -1 | 4 | -9 | 3.1 | 0.0 | 14 | 1.4
O=C(NC1CCN(C(=O)N2c3ccccc3Sc3ccccc32)CC1)c1ccco1 | 3.0 | 12 | -5 | -9 | 5.5 | 0.1 | 2 | 0.0
O=C(CSc1nnc(-c2ccccc2)n1CC1CCCO1)N1CCCC1 (stereo not given) | 2.5 | -3 | -5 | -15 | -0.5 | 0.3 | -11 | ?
Cc1ccc(C(=O)N2c3ccccc3N(Cc3ccccc3)C(=O)C2(C)C)cc1 | -9.3 | 57 | 17 | 0 | 3.6 | -1.5 | 11 | -1.0
CCOC(=O)c1sc(Nc2nc3c(OC)cccc3s2)nc1C | 0.9 | 21 | 11 | 78* | -361 | -2.1 | 14 | 2.1
CCN1CCN(S(=O)(=O)c2ccc(Cl)c(C(=O)Nc3cc(Cl)ccc3N3CCOCC3)c2)CC1 | -0.4 | 6 | -13 | -11 | 2.0 | -0.1 | 9 | -1.0
Cc1ccccc1S(=O)(=O)N1CC(C(=O)O)=CC[C@H]1c1ccc(Cl)cc1 | 3.3 | -1 | 1 | · | 0.7 | -0.7 | · | ·
Cc1ccc(C(=O)O)cc1Nc1ncnc2sc3c(c12)CCC3 | 4.8 | 0 | 9 | 10 | 3.0 | 1.2 | 4 | 4.0
CC(C)(C)NS(=O)(=O)c1ccc(CCC(=O)N2CCCC2)cc1 | -0.1 | · | -3 | 7 | 4.1 | 0.7 | -18 | 1.5
Cc1ccc(S(=O)(=O)NCCCCCC(=O)NC(C)(C)CO)cc1 | -0.2 | -5 | 32 | -1 | 4.8 | 0.4 | -3 | 0.7
CCOc1ccc(S(=O)(=O)Nc2cccc(C(=O)NCC(c3ccco3)N3CCCC3)c2)cc1 (stereo not given) | -5.5 | -2 | 1 | · | -0.1 | 0.2 | · | ·
O=C(N[C@@H](Cc1ccccc1)C(=O)NC1CCCCC1)c1ccco1 | -1.0 | -5 | -4 | -7 | 0.3 | -0.7 | -2 | -1.8
Cc1ccc2c(c1)C(O)(C1COC(C)(C)CC1=O)C(=O)N2C (stereo not given) | 2.4 | -4 | -9 | -45 | 0.5 | 0.5 | -10 | -12
COc1cc(NC(=O)COC(=O)c2ccccc2SCC(=O)N2CCCC2)cc(OC)c1 | 1.2 | · | 20 | -5 | -5.7 | -1.4 | 9 | 3.5
Cc1[nH]n(-c2ccccc2)c(=O)c1C(=O)c1ccc(Cl)cc1 | 0.7 | -2 | 24 | 6 | 4.8 | -2.6 | -10 | 0.6
Cc1cccc(C)c1OCC(=O)N(Cc1ccco1)C1CCS(=O)(=O)C1 (stereo not given) | -3.0 | -1 | 4 | -6 | 4.0 | 0.0 | 15 | -3.1
CCC(=O)c1ccc(OC(=O)N2CCOCC2)cc1 | 1.4 | · | 2 | -9 | 1.9 | 0.1 | 0 | -1.9
COc1cc2ncnc(NCc3ccccc3C)c2cc1OC | -0.3 | -6 | -8 | -1 | 4.4 | 0.5 | 21 | -3.7
NNC(=O)c1sccc1OCc1ccc(F)cc1 | -2.3 | · | -14 | 6 | 0.8 | -0.8 | 20 | -3.6
O=C1CC(c2ccc(F)c(Br)c2)C2=C(CCCC2=O)N1 (stereo not given) | -3.3 | 1 | -9 | -14 | 2.1 | -1.2 | -5 | -0.6
COc1ccc(CNC(=O)c2ccc(=O)oc2)cc1OC | -2.9 | -4 | 6 | 2 | 15 | -0.3 | -21 | 4.5
O=C(c1sc2cc(Cl)ccc2c1Cl)N1CCN(CCc2ccccn2)CC1 | 0.0 | -6 | -16 | 21 | -0.4 | 0.1 | 16 | 1.9
CCN(CC)CCN(Cc1cc2cc3c(cc2[nH]c1=O)OCO3)C(=S)NCC1CCCO1 (stereo not given) | -3.1 | 3 | -5 | 1 | -186 | 0.4 | -7 | -30
Nc1nc(Sc2ncccc2[N+](=O)[O-])n[nH]1 | 3.0 | 7 | 1 | 3 | 6.9 | 0.3 | -20 | 3.6
COc1ccc(CCNC(=O)COC(=O)c2ccccc2NCCO)cc1OC | -7.7 | -4 | -4 | 9 | i | -0.2 | 2 | 0.8
CCC1CCC(C(=O)NC(CCSC)C(=O)NCCN(CC(C)C)CC(C)C)CC1 (stereo not given) | 7.4 | 5 | 4 | -6 | 6.2 | 0.4 | -3 | 3.9
Cc1c(Cl)cccc1NC(=O)N1CCCC1 | 2.4 | 1 | 7 | -6 | 5.1 | 0.7 | -12 | 0.5
Cc1ccnc(NC(=O)CCC(=O)N(CC(=O)NCc2ccccc2)Cc2ccc(F)cc2)c1 | -6.8 | -28 | 15 | 9 | 2.3 | 0.3 | 20 | 0.9
O=C(NCCc1ccccc1)C1CCCN(c2cnccn2)C1 (stereo not given) | · | · | -15 | 2 | -15 | · | -4 | 3.7
c1ccc2c(C[C@@H]3CNCCN3CC3CCCCC3)cccc2c1 | 2.8 | 1 | 39 | -11 | -0.1 | -0.3 | 3 | -2.2
O=C(CC12CC3CC(CC(C3)C1)C2)NCC(=O)N1CCc2ccccc2C1 | 3.9 | -11 | -7 | -3 | -0.4 | -0.7 | 10 | 1.0
Clc1cccc(-c2ccc(/C=N/n3cnnc3)o2)c1Cl | 2.2 | -5 | 2 | -7 | · | 0.2 | -10 | 4.2
COc1ccccc1CNC(=O)[C@H](C)NC(=O)[C@@H]1Cc2ccccc2CN1 | 1.2 | -5 | 4 | -1 | 2.1 | -0.4 | -8 | 0.6
C#CCOCCOCCOCCNc1nc(N2CCN(C(=O)[C@H]([C@@H](C)CC)n3cc([C@@H](N)CC(C)C)nn3)CC2)nc(N2CCN(C(=O)[C@H](Cc3ccc(O)cc3)n3cc([C@@H](N)C(C)CC)nn3)CC2)n1 (stereo not given in full) | 2.4 | -1 | 1 | 12 | 0.2 | ? | -5 | 1.5
C=CCNc1scc(-c2ccccc2)[n+]1CC=C | 2.8 | 1 | -8 | -6 | 3.5 | -0.4 | 8 | 3.2
Cc1cc(NC(=O)CSc2nnc(-c3ccc(Br)o3)n2Cc2ccccc2)no1 | 12* | -6 | -18 | -8 | -7.3 | 0.6 | -1 | -0.6
O=C(c1cc2c(s1)CCCC2)N1CCN(S(=O)(=O)c2ccccc2C(F)(F)F)CC1 | -3.2 | -4 | -9 | -1 | 0.4 | -0.2 | 40 | -3.2
COc1ccc(S(=O)(=O)N2CCC(C(=O)Nc3nnc(C)s3)CC2)cc1OC | 0.6 | -8 | -5 | · | -1.5 | -0.1 | -11 | 2.9
Fc1ccc(-c2csc3ncnc(N4CCN(c5ccccc5)CC4)c23)cc1 | 2.6 | 0 | -2 | -38 | 2.2 | 0.4 | 10 | 1.9
Cc1ccccc1NC(=O)NC1CCCc2ccccc21 (stereo not given) | -2.0 | 1 | 10 | -9 | 1.6 | -0.8 | 8 | 4.6
COc1ccc(CN2CCNC(=O)C2CC(=O)NC2CCCCCC2)cc1C (stereo not given) | -2.6 | -6 | 4 | -4 | 0.0 | 0.7 | 6 | 5.4
O=C(Cc1cccs1)N1CCN=C1SCc1ccccc1F | -0.2 | -9 | -4 | -15 | 3.2 | -0.6 | 8 | -1.5
C#CCOC(=O)C[N+](C)(C)CC=C | 1.6 | -7 | 4 | 19 | 1.0 | 1.3 | -29 | -1.4
Clc1ccccc1CONc1ncnc2nonc12 | -1.0 | -1 | 3 | 18 | 1.9 | -3.9 | -1 | -0.6
CCCn1c(SCC(=O)Nc2nc3c(s2)CCCC3)nc2c1c(=O)n(C)c(=O)n2C | 1.1 | -28 | -12 | 1 | 2.7 | -0.8 | -13 | -0.5
CCOC(=O)c1ccccc1Nc1cc(C)nc2nc(C)nn12 | 2.2 | -3 | 0 | 4 | 6.6 | 0.4 | 1 | -1.5
CC(=O)c1ccc(OCCCC(=O)NC2=NCCS2)cc1 | 3.8 | -17 | 3 | -18 | 1.0 | 0.7 | -12 | 4.4
N=c1sccn1CC(=O)Nc1cccc(S(N)(=O)=O)c1 | 1.5 | -10 | 1 | -6 | 1.6 | -0.6 | -4 | ?
CCCSC1=C(C#N)C2(CCCCC2)C(C#N)=C(N)N1 | 1.2 | -1 | -1 | 7 | 5.8 | -0.6 | 14 | ?
Cc1nn(-c2ccc(F)cc2)c2sc(C(=O)N3CCCCCC3)cc12 | 5.2 | 7 | 2 | -4 | 0.5 | -0.4 | 16 | 0.5
O=c1c2sc(-c3ccccc3)cc2nc2n1CCC2 | 0.3 | 3 | -20 | -2 | 3.3 | -7.9 | 11 | -0.3
O=C1NC(c2ccncc2)Nc2sc3c(c21)CCCC3 (stereo not given) | -2.3 | -1 | -5 | 46 | -13 | -2.0 | -5 | 0.8
